# MLL AF4-AF9 inh: inhibitors of AF4 peptide binding to AF9, primary screen, biochemical, AlphaScreen, biotin-AF4 peptide, FLAG-AF9, single point; inhibition, % at 10 µM; actives 0.47% (n = 350,000); Protein AF-9 (Homo sapiens), P42568;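 active = every replicate reaching a set inhibition limit, whatever the replicate mean, cut at about 25% in these data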;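 note: 0% = plate neutral control median and 100% = total signal loss; the record names both 10 and 1 µM as test concentration; the first replicate is given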
# Target sequence (P42568 whole entry, looked up): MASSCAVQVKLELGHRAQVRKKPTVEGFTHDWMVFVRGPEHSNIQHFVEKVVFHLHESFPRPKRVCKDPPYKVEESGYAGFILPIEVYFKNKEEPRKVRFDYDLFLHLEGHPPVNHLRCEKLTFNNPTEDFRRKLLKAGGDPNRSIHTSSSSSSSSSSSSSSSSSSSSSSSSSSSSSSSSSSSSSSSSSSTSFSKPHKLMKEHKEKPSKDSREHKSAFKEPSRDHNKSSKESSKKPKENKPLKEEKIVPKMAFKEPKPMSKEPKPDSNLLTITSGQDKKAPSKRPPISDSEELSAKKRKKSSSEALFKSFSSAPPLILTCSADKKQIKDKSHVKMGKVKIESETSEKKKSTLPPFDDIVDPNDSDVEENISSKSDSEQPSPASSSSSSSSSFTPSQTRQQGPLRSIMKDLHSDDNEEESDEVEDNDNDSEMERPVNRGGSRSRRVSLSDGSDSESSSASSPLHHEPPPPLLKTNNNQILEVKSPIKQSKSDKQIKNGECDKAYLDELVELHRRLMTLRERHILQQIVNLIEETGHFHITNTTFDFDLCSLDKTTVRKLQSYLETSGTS
# rRNA inh HTS: reduced GFP signal of wild-type E. coli, primary screen, bacterial rRNA inhibitor project, GFP/RFP fluorescence, OD600, single point | E. coli WT GFP vs humanized-ribosome RFP mutants, 24 h; stronger effect = lower value; DMSO median 0, no signal -100 | GFP signal change (wild-type ribosome), % (test concentration not listed) | actives 1.6% (n = 350,000) | AID 720706, 2013;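 active = significant combined selectivity score with lowered wild-type GFP, culture density cut under 30%, mutant RFP and density less affected; inactive = any of these conditions unmet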; note: one replicate is shown; some compounds called inactive have numbers as strong as hits
# rRNA inh HTS OD600: recorded beside rRNA inh HTS, whose call it bears; OD600 change, %; measured here: OD600 growth;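 optical density of the mix in the first replicate; 0 = DMSO median and -100 = no signal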
# rRNA inh HTS RFP: second read-out of rRNA inh HTS, no call of its own (marks repeat the call); RFP signal change, %; measured here: RFP humanized mutant strains;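 first replicate; 0 = DMSO median and -100 = no signal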
# * hit, by the source's call; & = joins results of further samples. The list is partial, so the mix of outcomes need not match the whole.
# The line under a structure holds: MLL AF4-AF9 inh	rRNA inh HTS	rRNA inh HTS OD600	rRNA inh HTS RFP
> C[C@@H]1CN([C@H](C)CO)C(=O)c2cccc(NC(=O)C3CCOCC3)c2O[C@H]1CN(C)C(=O)Nc1ccc(F)cc1
    -1.0	6	3	4.0
> CCc1ccccc1NC(=O)CNC(=O)c1ccc(S(=O)(=O)NCc2ccco2)cc1
    2.6	9	5	1.4
> Cc1ccc(S(=O)(=O)N(C)C[C@H]2Oc3ccc(NS(=O)(=O)c4ccc(F)cc4)cc3CC(=O)N([C@H](C)CO)C[C@@H]2C)cc1
    -1.4	-2	-13	1.4
> CC(C)C#Cc1cnc2c(c1)C(=O)N([C@H](C)CO)C[C@@H](C)[C@@H](CN(C)C(=O)CCN1CCCCC1)O2
    -1.3	9	11	-1.5
> CO[C@@H](CN(C)C(=O)c1ccccc1F)[C@H](C)CN([C@H](C)CO)S(=O)(=O)c1ccc(F)cc1
    -1.5	4	8	1.1
> Cn1c(NCc2cccnc2)nc2cc(-c3ccc(C(=O)N4CCOCC4)cc3)sc2c1=O
    0.9	10	28	-1.5
> C[C@H]1CN([C@@H](C)CO)C(=O)c2cc(C3=CCCC3)cnc2O[C@H]1CN(C)C(=O)Cc1ccncc1
    -4.4	9	8	-0.5
> C[C@H](CO)N1C[C@H](C)[C@H](CN(C)S(=O)(=O)c2cccs2)OCCCC[C@H](C)Oc2ccc(NS(=O)(=O)c3ccc(F)cc3)cc2C1=O
    0.3	-2	6	2.2
> CO[C@@H]1CN(C)C(=O)c2cc(NC(C)=O)ccc2OC[C@H](C)N(Cc2cccc(F)c2)C[C@@H]1C
    -7.8	3	1	-0.7
> COc1ccc(CNC(=O)C[C@@H]2CC[C@@H](NC(=O)c3ccc4c(c3)OCO4)[C@H](CO)O2)cc1
    -0.3	1	2	-0.6
> C[C@@H]1CN([C@H](C)CO)C(=O)c2cc(NC(=O)c3ccncc3)ccc2O[C@@H](C)CCCCO[C@H]1CN(C)C(=O)Nc1ccccc1
    -0.5	0	1	1.4
> Cc1noc(C)c1NC(=O)Nc1cccc2c1O[C@@H](CN(C)C(=O)Nc1ccc(C(F)(F)F)cc1)[C@H](C)CN([C@H](C)CO)C2=O
    -0.2	1	4	-0.1
> Cc1ccccc1S(=O)(=O)N(C)C[C@H]1OCc2ccccc2-c2c(n(C)c3ccccc23)C(=O)N([C@H](C)CO)C[C@@H]1C
    5.1	1	-2	-0.7
> O=C(c1ccc(F)cc1)N1CCCCN2[C@H](CO)[C@@H](c3ccc(-c4ccccc4)cc3)[C@H]2C1
    4.9	-33	-68	-0.2
> CCCCN(C=O)c1c(CC)nc2c(OCCC)cccn12
    -4.4	8	3	0.2
> COc1cccc(NC(=O)N2CC(=O)N3[C@@H](CO)[C@@H](c4ccc(C5=CCCC5)cc4)[C@@H]3C2)c1
    -0.4	-3	-24	22
> C[C@@H]1CN([C@@H](C)CO)C(=O)c2ccccc2-c2ccccc2CO[C@H]1CN(C)C(=O)Nc1ccc2c(c1)OCO2
    0.8	2	5	-5.7
> CSCCC(NC(=O)c1ccccc1Br)C(=O)NNC(=O)C1COc2ccccc2O1 (configuration not stated)
    -0.5	3	0	-0.3
> O=C(C[C@@H]1C[C@H]2c3cc(NC(=O)C4CCC4)ccc3O[C@H]2[C@H](CO)O1)NCCc1ccccc1
    -2.2	-4	-1	0.5
> COCCNc1ncnc2c1ncn2[C@H]1CN(Cc2ccccc2)C[C@@H](CO)O1
    -1.9	7	7	0.2

# Grouped by structure, the compounds so far containing an aryl methoxy group
# The line under a structure holds: MLL AF4-AF9 inh	rRNA inh HTS	rRNA inh HTS OD600	rRNA inh HTS RFP
> COc1ccc(CNC(=O)C[C@@H]2CC[C@@H](NC(=O)c3ccc4c(c3)OCO4)[C@H](CO)O2)cc1
    -0.3	1	2	-0.6
> COc1cccc(NC(=O)N2CC(=O)N3[C@@H](CO)[C@@H](c4ccc(C5=CCCC5)cc4)[C@@H]3C2)c1
    -0.4	-3	-24	22

# The results go on.
# The line under a structure holds: MLL AF4-AF9 inh	rRNA inh HTS	rRNA inh HTS OD600	rRNA inh HTS RFP
> O=c1[nH]c2cc([N+](=O)[O-])ccc2c2ccccc12
    -1.7	-13*	2.4*	-1.6*
> O=C(C[C@H]1CC[C@H]2[C@@H](COC[C@H](O)CN2C(=O)Nc2cc(Cl)cc(Cl)c2)O1)NCC1CCCCC1
    -1.8	-26	-54	23
> CS(=O)(=O)N1Cc2cc(C(=O)NCC3CCCCC3)nc(-c3cccc(-c4cccnc4)c3)c2[C@@H]1CCO
    6.8	-8	-35	32
> CCCNC(=O)N1CC2(CN(C(=O)COC)C2)c2c(n(C)c3cc(OC)ccc23)[C@@H]1CO
    -2.0	5	4	-3.4
> CCCNC(=O)N(C)C[C@H]1Oc2cc(C#CCC(C)C)ccc2S(=O)(=O)N([C@@H](C)CO)C[C@H]1C
    -1.4	-5	-21	0.1
> O=C(c1ccccc1F)N1C[C@@H]2[C@H](c3ccccc31)[C@H](CO)N2C(=O)c1ccccc1
    -0.4	-1	5	0.2
> CN1[C@@H]2CN(C(=O)C3CCOCC3)c3ccccc3[C@@H]2[C@@H]1CO
    -7.6	6	4	-2.7
> O=C(NC1CCCC1)N1CC(=O)N2[C@H](CO)[C@@H](c3ccc(-c4ccc(F)cc4)cc3)[C@H]2C1
    1.8	-2	-4	4.8
> CCc1cnc(N2[C@H](C#N)[C@@H](c3ccccc3)[C@H]2CO)s1
    -2.2	-4	2	-4.4
> C[C@H](CO)N1C[C@H](C)[C@H](CN(C)C(=O)Nc2ccccc2)Oc2ncc(C#CC3CCCC3)cc2C1=O
    0.6	-2	-14	1.4
> Cc1noc(C)c1S(=O)(=O)N(C)C[C@@H]1OCCCC[C@H](C)Oc2ccc(NC(=O)NC(C)C)cc2C(=O)N([C@H](C)CO)C[C@H]1C
    0.4	-3	3	-3.0
> O=S(=O)(c1cccs1)N1CCCCN2[C@H](CO)[C@H](c3ccc(Br)cc3)[C@H]2C1
    2.1	-2	-39	0.0
> O=C(Nc1cccc(F)c1)N1CC(=O)N2[C@H](C1)[C@H](c1ccc(-c3ccc(F)cc3)cc1)[C@@H]2CO
    -7.2	-34	-63	0.9
> Cc1nc(SCC(=O)Nc2sccc2C(N)=O)c2c(C)c(C)sc2n1
    2.0	-32	-50	-10
> C[C@@H]1CN([C@H](C)CO)C(=O)c2cc(NC(=O)C3CCCCC3)ccc2O[C@H]1CN(C)Cc1ccccc1
    -5.3	-1	4	0.3
> CCC(=O)Nc1ccc2c(c1)C(=O)N(C)[C@@H]1CC[C@@H](CC(=O)NCCc3ccccc3)O[C@H]1CO2
    -0.3	0	1	-1.4
> CC(=O)N(C)C[C@H]1Oc2cc(C#C[C@@H](C)O)ccc2S(=O)(=O)N([C@H](C)CO)C[C@H]1C
    -2.6	0	-1	-5.2
> CC(C)NC(=O)N(C)C[C@@H]1Oc2ccc(NS(=O)(=O)c3cn(C)cn3)cc2CC(=O)N([C@H](C)CO)C[C@H]1C
    -3.1	8	1	-0.1
> COc1cccc(CCOC(=O)c2c(-c3ccsc3)oc3c2C(OC(C)=O)CCC3)c1 (configuration not stated)
    -2.6	2	3	2.5
> O=C(NCc1cccnc1)c1cc(C2CCCN(C(=O)c3cccc(O)c3)C2)on1 (configuration not stated)
    -0.6	-3	-4	-8.7

# An excerpt from above in order of the rRNA inh HTS value, low to high:
structure,rRNA inh HTS
O=C(Nc1cccc(F)c1)N1CC(=O)N2[C@H](C1)[C@H](c1ccc(-c3ccc(F)cc3)cc1)[C@@H]2CO,-34
O=C(NCc1cccnc1)c1cc(C2CCCN(C(=O)c3cccc(O)c3)C2)on1 (configuration not stated),-3
O=C(NC1CCCC1)N1CC(=O)N2[C@H](CO)[C@@H](c3ccc(-c4ccc(F)cc4)cc3)[C@H]2C1,-2
CCC(=O)Nc1ccc2c(c1)C(=O)N(C)[C@@H]1CC[C@@H](CC(=O)NCCc3ccccc3)O[C@H]1CO2,0
CCCNC(=O)N1CC2(CN(C(=O)COC)C2)c2c(n(C)c3cc(OC)ccc23)[C@@H]1CO,5

# Other results follow:
# The line under a structure holds: MLL AF4-AF9 inh	rRNA inh HTS	rRNA inh HTS OD600	rRNA inh HTS RFP
> CN(C)CC(=O)N1CCCCN2[C@@H](CO)[C@@H](c3ccc(-c4cccnc4)cc3)[C@@H]2C1
    1.2	10	13	3.7
> COc1ccc(-c2cnc3c(c2)C(=O)N([C@H](C)CO)C[C@H](C)[C@@H](CN(C)C(=O)NC2CCCC2)O3)cc1
    -2.1	-2	1	-1.6
> CC(C)N1CCC1(C)C(=O)Nc1cc(-c2ccccc2)nn1C (configuration not stated)
    -6.6	10	10	1.4
> COc1ccc(NC(=O)Nc2ccc3c(c2)C(=O)N([C@H](C)CO)C[C@H](C)[C@@H](CN(C)CC2CC2)OCCCC[C@H](C)O3)cc1
    17	1	3	-0.3
> COc1ccc(-c2oc3c(c2C#CC(C)(C)O)C(OC)CCC3)cc1 (configuration not stated)
    -2.2	-12	-11	0.9
> C[C@H](CO)N1C[C@H](C)[C@H](CN(C)S(=O)(=O)c2ccc(C#N)cc2)OCc2cnnn2CCCC1=O
    -3.8&-2.2	1&-1	17&-1	10&-0.3
> CC(C)(C)NC(=O)C(c1ccccc1)n1c(=O)c(-c2ccco2)nc2ccccc21 (configuration not stated)
    2.2	1	5	3.4
> Cc1noc(C)c1S(=O)(=O)Nc1cccc2c1O[C@@H](CN(C)S(=O)(=O)c1ccc(F)cc1)[C@@H](C)CN([C@@H](C)CO)C2=O
    0.4	-4	-11	0.6
> CC(C)NC(=O)N1CCCCN2[C@H](CO)[C@@H](c3ccc(C#C[C@@H](C)O)cc3)[C@@H]2C1
    -5.6	8	15	-2.9
> CO[C@@H]1CC[C@H]2CCN(C)C(=O)CCCN(C)C(=O)c3cc(C#N)ccc3OC[C@@H]1O2
    -1.2	0	3	1.2
> COc1ccc(S(=O)(=O)Nc2ccc3c(c2)CC(=O)N([C@H](C)CO)C[C@H](C)[C@H](CN(C)S(=O)(=O)c2cn(C)cn2)O3)cc1
    0.7	-4	-8	-2.4
> C[C@H]1CN([C@@H](C)CO)C(=O)c2cc(C3=CCCCC3)cnc2O[C@H]1CN(C)C(=O)NC1CCCC1
    -8.1	1	11	2.8
> CCS(=O)(=O)N[C@@H]1C=C[C@H](CC(=O)NCc2ccccn2)O[C@@H]1CO
    0.9	1	7	-1.1
> C[C@H]1CN([C@@H](C)CO)C(=O)c2cc(-c3cccnc3)cnc2O[C@@H]1CN(C)S(C)(=O)=O
    -4.2	3	6	-1.8
> COc1ccc(NC(=O)N(C)C[C@@H]2Oc3ccc(NC(=O)c4ccncc4)cc3C(=O)N([C@H](C)CO)C[C@H]2C)cc1
    -3.3	4	1	-1.3
> OC[C@@H]1[C@@H](c2ccc(/C=C/c3ccccc3)cc2)[C@@H]2CN(Cc3cncnc3)CCCCN12
    7.3	2	-1	8.0
> COc1ccc(C2=Nc3ccccc3N(C(=O)c3ccc(C)cc3)C2C(=O)NCc2ccccc2)cc1 (configuration not stated)
    2.7	23	21	12
> CCC(=O)Nc1ccc2c(c1)OC[C@@H](C)N(Cc1ccccc1F)C[C@@H](C)[C@H](OC)CN(C)C2=O
    2.9	-2	-13	0.5
> CNc1ccc(/C=C\CCCO)cn1
    -2.6	12	17	1.6
> C[C@H](CO)N1C[C@H](C)[C@@H](CN(C)C(=O)Nc2ccccc2)Oc2ccc(NS(C)(=O)=O)cc2C1=O
    -6.9	1	-2	-3.5

# Brought forward from above: two compounds, then new ones.
# The line under a structure holds: MLL AF4-AF9 inh	rRNA inh HTS	rRNA inh HTS OD600	rRNA inh HTS RFP
> CNc1ccc(/C=C\CCCO)cn1
    -2.6	12	17	1.6
> C[C@H](CO)N1C[C@H](C)[C@@H](CN(C)C(=O)Nc2ccccc2)Oc2ccc(NS(C)(=O)=O)cc2C1=O
    -6.9	1	-2	-3.5
> C[C@@H]1CN([C@@H](C)CO)C(=O)c2cc(NS(C)(=O)=O)ccc2O[C@@H]1CN(C)C(=O)Nc1ccc(C(F)(F)F)cc1
    1.6	-1	-4	-1.7
> C[C@H](CO)N1C[C@H](C)[C@H](CN(C)C(=O)C2CCC2)Oc2ncc(C#CCc3ccccc3)cc2C1=O
    -2.6	1	-1	-3.1
> Cc1ccc(S(=O)(=O)N(C)C[C@H]2Oc3ccc(NC(=O)C4CCCCC4)cc3CC(=O)N([C@H](C)CO)C[C@H]2C)cc1
    -1.3	-2	0	0.7
> CN(C)C(=O)C[C@@H]1CC[C@H]2[C@H](COc3ccc(NC(=O)c4ccc(F)cc4)cc3C(=O)N2C)O1
    -1.1	0	-3	-1.7
> COCC(=O)Nc1ccc2c(c1)[C@@H]1C[C@@H](CC(=O)N[C@@H](C)c3ccccc3)O[C@H](CO)[C@@H]1O2
    -0.1	-1	0	-1.6
> COc1ccc(-c2cnc3c(c2)C(=O)N([C@@H](C)CO)C[C@@H](C)[C@@H](CN(C)C(=O)Cc2cccnc2)O3)cc1
    -1.9	-37	-59	12
> CO[C@H]1CN(C)C(=O)c2ccc(NC(=O)NC(C)C)cc2OC[C@H](C)N(C(=O)CN(C)C)C[C@@H]1C
    -5.7	3	2	-1.0
> COCCCNC(=O)C[C@H]1C[C@@]2(C(=O)OC)C(=C[C@H](COCc3ccccc3)O[C@@H]2C)N(CCC2=CCCCC2)C1=O
    -0.7	8	-2	4.2
